PKM2 activator = increases activity of human pyruvate kinase M2. purified PKM2, Kinase-Glo ATP luminescence, activation; response scale: 0% is enzyme alone, no compound. P14618. Potency, µM (titrated, usually from 57.5 µM), for the others: top-dose activation, usual class: activators. 260,000 compounds, 0.34% hits; also: potency is read from the fitted curve at half-maximal effect; % is scaled to controls: 0 for no effect and ±100 for the full control effect; nearly all actives have a fitted effect of over 55% in size
Target sequence (P14618 whole entry, looked up): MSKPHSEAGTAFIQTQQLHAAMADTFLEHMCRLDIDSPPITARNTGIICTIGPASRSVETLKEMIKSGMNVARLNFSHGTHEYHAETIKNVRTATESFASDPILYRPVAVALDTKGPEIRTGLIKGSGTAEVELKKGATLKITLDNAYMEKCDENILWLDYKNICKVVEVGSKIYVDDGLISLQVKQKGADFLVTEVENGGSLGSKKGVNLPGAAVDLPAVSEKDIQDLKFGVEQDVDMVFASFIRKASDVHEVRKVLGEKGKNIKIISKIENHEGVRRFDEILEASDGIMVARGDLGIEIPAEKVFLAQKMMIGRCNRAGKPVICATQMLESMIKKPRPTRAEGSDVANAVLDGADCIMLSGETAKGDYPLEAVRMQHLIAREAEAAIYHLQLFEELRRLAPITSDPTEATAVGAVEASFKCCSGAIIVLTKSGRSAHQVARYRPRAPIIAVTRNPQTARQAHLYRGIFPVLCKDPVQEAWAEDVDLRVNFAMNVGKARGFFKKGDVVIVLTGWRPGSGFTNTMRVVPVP
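Purified hPK-M2 (>95%) run at intermediate activity with 0.1 mM ADP and 0.5 mM PEP in 50 mM imidazole pH 7.2, KCl, MgCl2; 1 h room temperature. ATP formed read by Kinase-Glo luminescence; normalized to uninhibited and no-enzyme controls.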
Chronic BCR inh = inhibitors of chronic active B-cell receptor signaling; ABC-DLBCL IkBa-CBG/CBR reporter, luminescence ratio, 4 h; Potency, µM (series often up to 46.1 µM), for inactives: at the highest dose ratio change, negative = lower green/red ratio, actives largely listed as inhibitors; 340,000 compounds, 0.05% hits; AID 493014; active = well fitted inhibition curve with a large enough effect in the signal ratio, with a control signal flat, not every such curve was filed as active; inconclusive = small, poorly fitted or top-dose-only effect, or effect the other way, or a change in a side signal; the % refers to the signal ratio;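 also: potency is read from the fitted curve at half-maximal effect; plate controls were basal doxycycline-induced cells for no effect and cells given 10 µM MG132 for full effect; MG132 reads +100%, hits lower the ratio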
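Compounds up to 46 uM were incubated four hours with TMD8 cells whose green CBG68 luciferase is fused to IkappaBalpha; red CBR luminescence normalised the signal, and concentration-effect curves were fitted to fusion, red and ratio data.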
B2AR arrestin = agonists driving beta-arrestin recruitment to human beta2-adrenergic receptor; P07550; beta-arrestin recruitment to beta2AR, cell-based reporter; Potency, µM (top dose mostly 46.1 µM), for the others: at the top dose activation, most hits filed as activators; 330,000 compounds, 0.02% hits; AID 492947;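 also: potency is read from the fitted curve at half-maximal effect; 0% = DMSO controls and full agonism = EC100 isoproterenol or metaproterenol; nearly all actives have a fitted effect of over 65% in size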
Coupling enz = counter-screen for Giardia aldolase inhibitors: coupling enzyme system | coupling enzyme system counterscreen, AmpLite Red fluorescence | activity change, negative = inhibition, % at 58.2 µM, hits read low | 290,000 compounds, 0.67% hits | AID 2472; in the data active = activity change below about -30%; also: % is scaled to controls: 0 for no effect and ±100 for the full control effect
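Counterscreen of the coupled detection system alone, without aldolase: glyceraldehyde-3-phosphate coupling enzymes plus AmpLite Red readout. Compounds at 57.5 uM final, 10 min RT preincubation, 20 min RT reaction, fluorescence 525/598 nm.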
Giardia killer = kills Giardia lamblia; 340,000 compounds, 0.15% hits; AID 540267; Giardia lamblia trophozoite viability; activity change, % at 7.66 µM, hits read low; in the data active = activity change below about -80%; inconclusive = between about -30% and that limit;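 also: parasites exposed to compound for two days anaerobically before the ATP read; % is scaled to controls: 0 for no effect and ±100 for the full control effect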
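Each well holds 100 Giardia trophozoites and compound. After two days (48 hrs) at 37 deg C in anaerobic conditions, ATP is quantified by luminescence.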
Integrin act MD = activators of alpha7 integrin expression for muscular dystrophy; alpha7betagal myoblasts, beta-gal FDG fluorescence, 48 h; Potency, µM (highest dose often 38.3 µM), for the others: at the highest dose activation, actives largely listed as activators; 350,000 compounds, 0.064% hits;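 also: potency is read from the fitted curve at half-maximal effect; 100% = response of the positive control SU9516; nearly all actives have a fitted effect of over 60% in size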
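Alpha7betagal+/- myoblasts (passage 13) were plated 16-24 hr, then exposed to compounds (1:260 dilution of DMSO stock) for 48 hours at 37C. After MPER lysis, β-galactosidase reporter activity was read as FDG fluorescence (ex 480/em 540) after 30 minutes.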
Tb PFK block = blocks T. brucei phosphofructokinase | Potency, µM (series often up to 57.5 µM), for the others: top-dose activity, negative = inhibition, usual class: inhibitors | O15648 | 330,000 compounds, 0.17% hits | AID 485367 | T. brucei PFK, ADP-Glo luminescence;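 also: potency is read from the fitted curve at half-maximal effect; 0% = uninhibited 1x PFK enzyme wells and -100% = no-enzyme wells; nearly all actives have a fitted effect of over 60% in size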
Target sequence (O15648 whole entry, looked up): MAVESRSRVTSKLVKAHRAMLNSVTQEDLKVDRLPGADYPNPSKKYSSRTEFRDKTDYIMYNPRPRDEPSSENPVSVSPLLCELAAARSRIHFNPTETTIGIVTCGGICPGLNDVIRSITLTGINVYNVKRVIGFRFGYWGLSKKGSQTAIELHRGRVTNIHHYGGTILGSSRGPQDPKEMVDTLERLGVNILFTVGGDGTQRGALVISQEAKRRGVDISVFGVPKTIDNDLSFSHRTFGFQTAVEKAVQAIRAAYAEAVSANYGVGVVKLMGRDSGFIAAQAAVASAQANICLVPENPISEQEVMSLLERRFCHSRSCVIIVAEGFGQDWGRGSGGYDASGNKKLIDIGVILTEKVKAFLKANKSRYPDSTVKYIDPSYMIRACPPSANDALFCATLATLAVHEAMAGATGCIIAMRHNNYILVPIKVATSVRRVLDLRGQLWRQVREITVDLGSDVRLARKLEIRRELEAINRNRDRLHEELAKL
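Compounds were pin-transferred as a titration series up to 57 uM into substrate buffer (0.5 mM F6P, 0.1 mM ATP, pH 8.0), then 1.25 nM PFK was added and reactions ran 45 min before ADP-Glo detection.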
GALK inhibitor = inhibitors of human galactokinase | P51570 | Purified GALK, Kinase-Glo residual ATP luminescence | Potency, µM (series often up to 57.5 µM), for inactives: top-dose activity change, negative = inhibition, actives largely listed as inhibitors | 270,000 compounds, 0.007% hits | AID 1868; also: potency is read from the fitted curve at half-maximal effect; % is scaled to controls: 0 for no effect and ±100 for the full control effect
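Compounds were pin-transferred into ATP buffer (35 uM final), then GALK plus galactose (5 nM, 100 uM final) was added. After 1 h at room temperature, Kinase-Glo Plus was added and luminescence read after 10 min.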
ASM inhibitor = human S-ASM enzyme inhibition; Potency, µM (top dose mostly 57.5 µM), for inactives: at the top dose activity change, negative = inhibition, actives largely listed as inhibitors; placental ASM, HMU-PC fluorogenic substrate, 60 min; 340,000 compounds, 0.006% hits; also: potency is read from the fitted curve at half-maximal effect
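Fluorogenic HMU-PC substrate (9 uM final) is turned over by placental ASM in 60 min at 37 C after a 10 min compound preincubation. Reaction ended by alkaline stop (pH 10), with fluorescence read at 386/447 nm.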
PTAP TSG101 blk = blocks PTAP/TSG101 interaction to inhibit HIV-1 budding; Potency, µM (titrated, usually from 115 µM), without a hit: top-dose activity change, negative = inhibition, actives largely listed as inhibitors; Q99816; Fluorescence polarization, FITC-PTAP peptide / Tsg101 binding; 340,000 tested, under 10 active; AID 493005; active = well fitted inhibition curve with a large enough effect in the main read-out, with a control signal flat, not every such curve was filed as active; inconclusive = small, poorly fitted or top-dose-only effect, or effect the other way, or a change in a side signal; inactive = no such curve, though single readings can be large or run the other way; also: potency is read from the fitted curve at half-maximal effect; % of control where 0% means no effect
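Tsg101 binding domain (10 uM final) was mixed with compound and a FITC-labeled PTAP peptide (50 nM final) in HEPES pH 7.5 buffer with NaCl, Tween 20, EDTA and TCEP; fluorescence polarization was read after 20 min at r.t.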
The depositor's hits bear a star; ? = inconclusive; . = no result given; [ ] = remark or other dose. Unless noted, calls follow the shape of the dose curve; as a rule, active = well fitted curve in the direction sought with a large enough effect; inconclusive = small, poorly fitted or top-dose-only effect, or another doubt; inactive = no such curve, though single readings can be large; an effect the other way counts as inactive or inconclusive.

SMILES | PKM2 activator | Chronic BCR inh | B2AR arrestin | Coupling enz | Giardia killer | Integrin act MD | Tb PFK block | GALK inhibitor | ASM inhibitor | PTAP TSG101 blk
CCN(CCNC(=O)C1CCN(S(=O)(=O)CC)CC1)c1ccccc1 | 8% | 1% | 0.2% | 0 | 1 | 0% | -6% | 2% | 1% | -7%
Fc1ccc(-c2csc(-c3cccnc3)n2)cc1F | . | ? | 0.4% | 0 | -1 | 6% | -11% | 4% | -1% | -9%
Cc1ccc(NC(=O)NNS(=O)(=O)c2ccc(Br)cc2)cc1 | -2% | -1% | -0.7% | 2 | -18 | 10% | 1% | 1% | 5% | -15%
CCCn1c(C)cc(C(=O)COc2ccc(S(=O)(=O)N(CC)CC)cc2[N+](=O)[O-])c1C | -22% | 1% | -0.1% | 7 | -2 | -21% | -8% | 1% | 2% | -7%
Cc1ccc(NS(=O)(=O)c2ccc(C)c(NC(=O)COc3ccc4ccccc4c3)c2)c(C)c1 | -6% | 2% | -1.0% | -7 | -14 | 0% | 4% | 2% | -5% | 0%
CC(C)(C)NS(=O)(=O)c1ccc(CCC(=O)Nc2ccc3c(c2)OCO3)cc1 | 0% | 1% | 0.0% | 1 | -5 | -18% | 1% | -1% | 2% | -6%
Cc1ccccc1Cn1c(=O)n(CCCC(=O)NCc2ccco2)c(=O)c2sccc21 | 0% | ? | 0.4% | 0 | -8 | -22% | 3% | 2% | 0% | -6%
CC(C)(C)NC(=O)/C=C/c1cccc(C(F)(F)F)c1 | -12% | ? | 0.1% | 1 | 8 | 26% | 8% | 1% | -7% | -3%
COc1cccc(/C=N/n2nnc3c(cnn3-c3ccccc3)c2=O)c1 | 0% | -7% | -0.2% | 0 | 21 | 14% | 4% | 0% | -1% | 0%
COc1cccc(/C=C/C(=O)OCC(=O)Nc2cc(S(=O)(=O)N3CCOCC3)ccc2C)c1 | 15% | -5% | 0.1% | 0 | 7 | 0% | 0% | 7% | -7% | -3%
CCn1c(SCC(=O)N/N=C/C(C)=C\c2ccco2)nnc1-c1ccccc1 | ? | -1% | -0.3% | -19 | -10 | 10% | ? | 2% | -1% | -4%
CCn1c(CNC(=O)COc2ccc(C(C)C)cc2)nnc1SCC(=O)Nc1ccccc1 | 2% | -4% | -0.1% | 4 | 19 | 2% | 4% | 1% | -4% | -5%
CS(=O)(=O)c1ccc(-c2csc(-c3cccnc3)n2)cc1 | . | ? | -0.4% | -3 | 21 | 1% | 3% | -2% | 0% | -9%
Cc1ccc(-c2nn(-c3ccccc3)c3[nH]c(=O)c(CNCc4ccccc4)cc23)cc1 | 0% | 2% | -0.3% | 2 | 13 | -28% | -7% | -1% | -14% | 4%
COc1ccc(C2NC(c3ccc(OC)cc3OC)C(C)C(=O)C2C)c(OC)c1 (stereo unspecified) | -3% | -6% | 0.1% | 2 | 2 | 15% | -1% | 12% | 0% | 0%
CC(C)COc1nc2c(c(=O)n(C)c(=O)n2C)n1C | -10% | ? | -0.7% | -3 | 4 | ? | -2% | 0% | 7% | -3%
Fc1ccc(-c2cc3nc(-c4ccccc4)cc(N4CCOCC4)n3n2)cc1 | 0% | ? | -3.2% | 1 | 8 | 19% | -5% | 2% | 222%[activator] | -3%
CC(C)C(=O)Nc1ccc(-c2csc(-c3ccccc3)n2)cc1 | -4% | ? | -0.2% | 1 | -12 | 16% | 1% | . | 2% | -5%
N=c1c2c(-c3ccccc3)c(-c3ccccc3)n(Cc3ccco3)c2ncn1CCO | -3% | ? | 0.1% | 0 | -11 | -51%[inhibitor] | -5% | -2% | -3% | 0%
O=C(Nc1nnc(CCN2CCCCC2)s1)c1ccccc1Cl | . | -2% | -1.6% | -1 | -4 | -37% | -1% | 2% | -3% | -2%
COc1cccc(OC)c1C(=O)Nc1sc2c(c1C#N)CCC2 | -2% | -2% | -0.6% | 1 | -7 | -19% | -26% | 4% | 0% | -1%
COc1ccc(CN2CCCC(C(=O)c3ccc4c(c3)OCO4)C2)c(F)c1 (stereo unspecified) | . | 2% | -0.4% | 0 | 12 | 0% | 6% | 0% | 5% | -4%
O=C(NC1=NCCS1)c1sc2cc(Cl)cc(Cl)c2c1Cl | -4% | ? | 0.0% | 2 | 12 | 3% | -3% | 0% | . | -4%
O=C(NC(NC(=S)Nc1c(Cl)cc(Cl)cc1Cl)C(Cl)(Cl)Cl)OCc1ccccc1 (stereo unspecified) | -1% | ? | -0.4% | -1 | 8 | -55%[inhibitor] | 0% | -2% | -11% | -2%
COc1ccccc1-n1c(-c2cc(-c3ccc(F)cc3)n[nH]2)n[nH]c1=S | -5% | -19% | -0.4% | 0 | 15 | 39% | -9% | -2% | -5% | 1%

Brought forward from above: 3 compounds; new compounds follow.
SMILES | PKM2 activator | Chronic BCR inh | B2AR arrestin | Coupling enz | Giardia killer | Integrin act MD | Tb PFK block | GALK inhibitor | ASM inhibitor | PTAP TSG101 blk
O=C(NC1=NCCS1)c1sc2cc(Cl)cc(Cl)c2c1Cl | -4% | ? | 0.0% | 2 | 12 | 3% | -3% | 0% | . | -4%
O=C(NC(NC(=S)Nc1c(Cl)cc(Cl)cc1Cl)C(Cl)(Cl)Cl)OCc1ccccc1 (stereo unspecified) | -1% | ? | -0.4% | -1 | 8 | -55%[inhibitor] | 0% | -2% | -11% | -2%
COc1ccccc1-n1c(-c2cc(-c3ccc(F)cc3)n[nH]2)n[nH]c1=S | -5% | -19% | -0.4% | 0 | 15 | 39% | -9% | -2% | -5% | 1%
Cc1ccc(-c2c(NCCc3ccccc3)c(=O)c2=O)cc1 | . | 0% | -0.2% | 0 | 4 | 18% | 3% | . | -2% | -2%
COc1ccc(CNCc2cc3c(cc2[N+](=O)[O-])OCO3)cc1 | . | -3% | 0.2% | -5 | 10 | -7% | 0% | -1% | -2% | 2%
O=C(CSc1nc(-c2ccccc2)cs1)Nc1nccs1 | 1% | ? | -0.1% | 4 | 0 | 18% | 1% | -4% | 4% | -6%
CN=C1S/C(=C\c2ccc(Sc3ccc(Cl)cc3)o2)C(=O)N1C | 4% | 5% | 0.2% | 1 | . | . | 1% | 0% | . | .
O=C(/C=C/c1cccs1)N1CCCC1 | . | 6% | 0.2% | 0 | -9 | -3% | 0% | . | 26% | -6%
O=C(Nc1ccccc1)C1CCCCN1S(=O)(=O)c1ccccc1 (stereo unspecified) | 0% | 0% | 0.0% | 0 | 8 | 0% | -2% | -1% | -1% | 0%
COc1ccccc1OCc1nnc(SCC(=O)Nc2ccc(C)cc2)n1C | -2% | ? | 0.1% | -1 | -14 | 3% | 1% | 7% | -1% | -1%
COc1cc2c(cc1OC)CN(C(=O)c1ccncc1)CC2 | . | -1% | 0.2% | 1 | -4 | -8% | 1% | -2% | 2% | -8%
COc1cccc(-n2nc3c(=S)[nH]nc(C)c3c2C)c1 | -4% | 3% | -0.1% | 0 | 0 | 13% | -3% | 0% | -2% | 1%
COc1ccc(-c2cc3ccccc3oc2=O)cc1NC(=S)NC(=O)c1ccc2c(c1)OCCO2 | -6% | -20% | 1.7% | -1 | -16 | -5% | -4% | . | 13% | -2%
Cc1cc2c(cc1S(=O)(=O)N(C)c1ccccc1)NC(=O)CO2 | 10% | 0% | -0.3% | -9 | -15 | 0% | 2% | 1% | -1% | -3%
COc1ccc2cc3cc(C(=O)NCCN4CCc5ccccc5C4)sc3nc2c1 | -10% | 0% | 0.2% | 0 | 6 | 32% | 2% | 0% | 87%[activator] | -4%
Cc1cccc(NC(=O)CN2C(=O)N/C(=C\c3ccccc3OCc3ccc(C(=O)O)cc3)C2=O)c1 | 1% | 18% | -0.1% | 3 | 2 | -13% | 3% | -5% | 14% | -15%
NS(=O)(=O)c1cccnc1Nc1cccc(Cl)c1Cl | 0% | . | . | -15 | 4 | 0% | . | 1% | -2% | 0%
C=CCn1c(CCNC(=O)c2cccs2)nnc1SCC(=O)Nc1cccc(Cl)c1C | -2% | -18% | -0.8% | 6 | -9 | -23%[7.66 µM] | -6% | 0% | 4% | -1%
Cc1ccc(C2CC(=O)NC3=C2C(=O)CCC3)cc1Br (stereo unspecified) | 17% | ? | -0.4% | -4 | -2 | 9% | -8% | 0% | 13% | -3%

One compound at a time, from the list above. Values in the order: PKM2 activator | Chronic BCR inh | B2AR arrestin | Coupling enz | Giardia killer | Integrin act MD | Tb PFK block | GALK inhibitor | ASM inhibitor | PTAP TSG101 blk
Profile of Cc1ccc(-c2nn(-c3ccccc3)c3[nH]c(=O)c(CNCc4ccccc4)cc23)cc1 → 0% | 2% | -0.3% | 2 | 13 | -28% | -7% | -1% | -14% | 4%
Profile of O=C(Nc1nnc(CCN2CCCCC2)s1)c1ccccc1Cl → . | -2% | -1.6% | -1 | -4 | -37% | -1% | 2% | -3% | -2%

Assay outcomes: PubChem, National Center for Advancing Translational Sciences (NCATS)

A portion of the library. The share of hits here may be higher or lower than overall.
